MLL AF4-AF9 inh = inhibitors of AF4 peptide binding to AF9, primary screen, biochemical, AlphaScreen, biotin-AF4 peptide, FLAG-AF9, single point | inhibition, % at 10 µM | actives 0.47% (n = 350,000) | Protein AF-9 (Homo sapiens), P42568 | AID 651704, 2012;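 active = every replicate reaching a set inhibition limit, whatever the replicate mean, cut at about 25% in these data; inconclusive = mean inhibition reaches that limit but some replicates miss it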;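 note: 0% = plate neutral control median and 100% = total signal loss; the record names both 10 and 1 µM as test concentration; the first replicate is given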
HNF4A DNA FP = change in binding of human HNF4A to DNA, primary screen, biochemical, fluorescence polarization, FITC-DNA | Hepatocyte nuclear factor 4-alpha (Homo sapiens), P41235 | 1 h | activity change, % at 10 µM | actives 0.3% (n = 360,000); in the data active = activity change above about 30%, passing the limit was not always enough;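 note: controls were the assay level and a saturating level of protein; the project sought stronger binding though the title names inhibitors; some compounds called inactive have numbers as strong as hits; positive values seem to mean higher polarization but the record does not say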
Target sequence (P41235 whole entry, looked up): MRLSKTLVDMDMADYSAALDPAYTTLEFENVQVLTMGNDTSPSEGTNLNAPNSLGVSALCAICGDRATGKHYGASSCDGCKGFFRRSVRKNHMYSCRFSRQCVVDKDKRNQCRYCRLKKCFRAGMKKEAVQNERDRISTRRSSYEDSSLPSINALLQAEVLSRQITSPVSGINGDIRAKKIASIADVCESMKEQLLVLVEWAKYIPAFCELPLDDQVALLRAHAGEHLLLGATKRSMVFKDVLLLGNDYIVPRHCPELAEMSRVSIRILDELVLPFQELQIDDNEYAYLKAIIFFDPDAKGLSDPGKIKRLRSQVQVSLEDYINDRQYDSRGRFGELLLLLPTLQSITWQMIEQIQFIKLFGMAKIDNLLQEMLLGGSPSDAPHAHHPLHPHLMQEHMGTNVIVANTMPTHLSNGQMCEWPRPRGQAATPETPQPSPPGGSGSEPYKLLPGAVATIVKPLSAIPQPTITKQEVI
Ecoli rRNA inh = reduced GFP signal of wild-type E. coli, primary screen, bacterial rRNA inhibitor project, GFP/RFP fluorescence, OD600, single point | actives 1.6% (n = 350,000) | AID 720706, 2013 | E. coli WT GFP vs humanized-ribosome RFP mutants, 24 h; active compounds read low; DMSO median 0, no signal -100 | GFP signal change (wild-type ribosome), % (concentration not given with the values);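 active = significant combined selectivity score with lowered wild-type GFP, culture density cut under 30%, mutant RFP and density less affected; inactive = any of these conditions unmet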; note: one replicate is shown; some compounds called inactive have numbers as strong as hits
FGF22 binding = binders of human FGF22 protein, primary screen, FGF22 synaptogenesis inhibitor project, biophysical, thermal shift, single point; recombinant FGF22 thermal shift, SYPRO orange fluorescence; percent of sucrose octasulfate shift, DMSO zero; calls only at 9.99 µM; actives 1.5% (n = 340,000); AID 651658, 2012;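 active = melting point raised past a set limit in the mean and every replicate; inconclusive = no clear call; three in four hits are not shown here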
Target sequence (Q9HCT0 whole entry, looked up): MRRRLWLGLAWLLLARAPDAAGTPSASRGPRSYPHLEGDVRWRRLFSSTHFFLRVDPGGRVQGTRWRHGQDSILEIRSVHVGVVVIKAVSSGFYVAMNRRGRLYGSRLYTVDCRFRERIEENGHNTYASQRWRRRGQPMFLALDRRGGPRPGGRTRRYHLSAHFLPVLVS
ALR H2O2 inh = inhibitors of human ALR sulfhydryl oxidase, primary screen, biochemical, H2O2 detection, HRP-luminol luminescence, single point. FAD-linked sulfhydryl oxidase ALR (Homo sapiens), P55789. purified ALR, DTT oxidation. inhibition, % (test concentration not listed). actives 3.8% (n = 290,000). AID 485317, 2010;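 active = mean and each replicate at 75% or more; inconclusive = only one of the two met; inactive = neither met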;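 note: stock transfer was 7.5 nL into about 7.5 µL; 0% = neutral wells and 100% = wells with inactivated enzyme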
Target sequence (P55789 whole entry, looked up): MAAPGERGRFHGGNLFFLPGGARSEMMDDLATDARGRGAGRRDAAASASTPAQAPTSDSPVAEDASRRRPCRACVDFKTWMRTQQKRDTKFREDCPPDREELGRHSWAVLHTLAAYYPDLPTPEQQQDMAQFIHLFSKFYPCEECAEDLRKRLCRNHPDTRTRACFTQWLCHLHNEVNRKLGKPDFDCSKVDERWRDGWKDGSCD
Ecoli growth = E. coli growth inhibition, primary screen, OD600 | Escherichia coli growth, 23 h; active compounds read low | OD600 absorbance (concentration not given with the values) | actives 0.21% (n = 330,000) | AID 1053175, 2014;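 active = OD600 absorbance below the run mean of sample wells minus 3.6 SD, in any replicate, cut at about 0.56 in these data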;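 note: stock transfer was 300 nL into about 60 µL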
Vif TR-FRET = inhibitors of Vif binding to APOBEC3G peptide, primary screen, biochemical, TR-FRET, GST-Vif 1-94, biotin-A3G peptide, dose response retest (AID 1117319); Virion infectivity factor (Human immunodeficiency virus type 1 group M subtype B (isolate …; TR-FRET GST-Vif / biotin-A3G peptide binding; higher % means a stronger effect; test concentration not given here; strong numbers were not always called active; inhibition, %, or IC50 in µM where a hit was titrated; actives 0.57% (n = 260,000);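 active = above the screen mean plus three standard deviations and confirmed in dose response; inconclusive = results disagree or hit not tested in dose response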;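 note: Vif residues 1-94 fused to GST binding biotinylated APOBEC3G peptide 110-148; 0% = full assay without inhibitor and 100% = GST in place of GST-Vif; retest series ran down from 100 µM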
Ecoli rRNA inh OD600 = further read-out of Ecoli rRNA inh, marked with its call; OD600 change, %; measured here: OD600 growth;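 optical density of the mix in the first replicate; 0 = DMSO median and -100 = no signal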
Ecoli rRNA inh RFP = recorded beside Ecoli rRNA inh, whose call it bears; RFP signal change, %; measured here: RFP humanized mutant strains;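 first replicate; 0 = DMSO median and -100 = no signal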
Starred values were filed as active, the others as inactive; i = inactive; ? = inconclusive; · = no result given. This is a subset (hit frequency here may not be typical).

Order of values – Ecoli rRNA inh	Vif TR-FRET	HNF4A DNA FP	ALR H2O2 inh	Ecoli rRNA inh RFP	MLL AF4-AF9 inh	FGF22 binding	Ecoli rRNA inh OD600	Ecoli growth
CCC1CN(C(=O)N2CCC(C(=O)NCc3cccc(OC)c3OC)CC2)c2cc(C)ccc2O1 (centres undefined)
→ -14	·	3.2	2	4.5	-2.9	i	-22	0.71
CC(=O)NC(Cc1ccc(C)cc1)C(=O)NC1CCN(C(=O)NCc2ccccc2)CC1 (centres undefined)
→ 1	·	3.2	·	-0.6	0.9	i	7	0.71
COCC(=O)Nc1ccccc1NC(C)=O
→ ·	-1%	0.4	·	·	·	·	·	0.69
O=C(O)/C=C\C(=O)Nc1ccccc1N1CCN(c2ccccc2)CC1
→ 1	·	-1.5	98*	-1.7	1.5	i	13	0.71
COC(=O)c1nccnc1C(=O)Nc1ccccc1N1CCOCC1
→ 2	·	-5.1	35	0.7	-0.8	i	11	0.65
COCCCn1cc(CN2CC(N3CCN(C)CC3)CS2(=O)=O)nn1 (centres undefined)
→ 9	·	0.4	·	2.5	-3.9	i	3	·
Cc1cccc(NC(=S)NNC(=O)c2ccccc2OC(F)F)c1
→ ·	20%	-2.1	?	·	·	·	·	0.66
COc1ccc(CN(C)C(=O)c2cccc(S(=O)(=O)N3CCN(c4ccccc4)CC3)c2)c(OC)c1OC
→ -6	1%	-1.4	-2	3.5	-0.6	i	-7	0.65
Cc1cc(S(=O)(=O)NCCN2CCOCC2)ccc1Cl
→ 9	-9%	-0.4	-6	0.7	-0.2	i	3	0.67
Oc1ccc2ccccc2c1CN1CCN(C/C=C/c2ccccc2)CC1
→ 0	·	-2.8	-11	1.5	9.6	i	-4	0.64

Other results.
Order of values – Ecoli rRNA inh	Vif TR-FRET	HNF4A DNA FP	ALR H2O2 inh	Ecoli rRNA inh RFP	MLL AF4-AF9 inh	FGF22 binding	Ecoli rRNA inh OD600	Ecoli growth
O=C(Nc1ccc(Cl)c(Cl)c1)Nc1ccccn1
→ 7	4%	4.1	-4	-3.7	-19	i	20	0.69
COc1ccccc1N(C)S(=O)(=O)c1ccc(C(=O)OCC(=O)Nc2ccc(C(N)=O)cc2)cc1
→ 7	1%	2.4	0	1.4	-0.8	i	1	0.69
C[C@]12c3[nH]c4ccc(Cl)cc4c3CCN1C(=O)[C@@H](CC(=O)NCc1cccc(C(F)(F)F)c1)C[C@@H]2C(=O)N1CCCCC1
→ 4	·	-3.0	·	1.5	-4.0	i	5	0.72
CSc1nc2c(c(=O)n1-c1ccccc1)SCC2
→ ·	2%	1.7	-5	·	·	·	·	0.74
COc1ccc(NC(=O)c2sc(=O)n(Cc3ccc(SC)cc3)c2C)cc1OC
→ 2	·	2.1	·	-8.5	-7.1	i	-3	·
COc1cccc(/C=C2/C(=O)NN(c3ccc(F)cc3)C2=O)c1
→ 10	1%	1.1	?	-1.5	-2.9	i	10	0.7
O=C(NCCC(=O)N1CCC2(CC1)NCCc1[nH]cnc12)c1cccc(C(F)(F)F)c1
→ 11	·	3.8	·	2.0	-3.3	i	10	0.71
C[C@H]1CCCCO[C@H](CN(C)CC2CC2)[C@@H](C)CN([C@@H](C)CO)C(=O)c2cc(NC(=O)Nc3ccc4c(c3)OCO4)ccc2O1
→ 3	·	·	·	0.9	35*	i	7	·
c1ccc(-c2cc(-c3ccc(N4CCOCC4)cc3)nc3ccccc23)cc1
→ ·	7%	-1.1	1	·	·	·	·	0.71
Cc1ccc2[nH]c(=O)c(CC=C(Cl)Cl)c(C)c2c1
→ ·	-3%	-0.6	-1	·	·	·	·	0.71

(next part)
Order of values – Ecoli rRNA inh	Vif TR-FRET	HNF4A DNA FP	ALR H2O2 inh	Ecoli rRNA inh RFP	MLL AF4-AF9 inh	FGF22 binding	Ecoli rRNA inh OD600	Ecoli growth
O=C(Nc1ccc(-c2nnc(-c3ccccc3)o2)cc1)C1CCCO1 (centres undefined)
→ ·	-2%	-0.6	-1	·	·	·	·	0.69
COc1cccc(/C=N/NC(=O)c2cnccn2)c1OC
→ 12	1%	-0.9	-1	-1.1	1.8	i	14	·
Cc1ccc(OCCC(=O)NNC(=O)c2ccccc2F)cc1
→ 2	·	-2.2	·	-2.5	-10	i	2	0.67
Nc1ccccc1C(=O)N1CCc2ccccc21
→ -1	-3%	1.4	18	3.5	0.7	·	-12	0.71
CC(C)C1C(C#N)=C(N)Oc2n[nH]c(C(C)(C)C)c21 (centres undefined)
→ ·	28%	-2.4	-13	·	·	·	·	0.69
Cc1occc1C(=O)NC(C)CCc1ccccc1 (centres undefined)
→ ·	3%	-1.4	-5	·	·	·	·	0.68
N#Cc1cnc(NOCc2ccc(Cl)cc2)nc1
→ 9	-2%	1.4	0	-2.5	-4.7	i	10	0.69
COc1ccc(OCCn2cnc3ccccc32)cc1
→ -23	1%	-0.2	-14	-4.4	4.2	i	-46	0.66
CCOC(=O)C1(CCSC)NC(c2ccco2)C2C(=O)N(C)C(=O)C21 (centres undefined)
→ ·	-1%	7.3	-10	·	·	·	·	0.71
Cc1ccc(N(CC(=O)N2CCOCC2)S(C)(=O)=O)cc1C
→ 17	3%	5.2	-4	0.8	·	·	15	0.66

Next records.
Order of values – Ecoli rRNA inh	Vif TR-FRET	HNF4A DNA FP	ALR H2O2 inh	Ecoli rRNA inh RFP	MLL AF4-AF9 inh	FGF22 binding	Ecoli rRNA inh OD600	Ecoli growth
COc1ccccc1-c1ccc2c(c1)[C@@H]1[C@@H](CCN1S(=O)(=O)c1ccccc1)[C@H](CO)N2
→ 4	·	·	·	3.5	-1.0	i	1	·
CC1CCN(c2ccc(NC(=O)c3cccnc3Cl)cc2)CC1
→ 4	3%	1.8	50	26	2.6	i	4	0.71
CC1CC1C(=O)Nc1nc(-c2ccccn2)cs1 (centres undefined)
→ ·	?	-0.1	-5	·	·	·	·	0.73
CC(C)C[C@H]1CNC(=S)N1C[C@H]1CCCN1C[C@H](Cc1ccc(O)cc1)N1C[C@H](CC(C)C)N(CCc2ccccc2)C1=S
→ 3	·	-1.4	·	8.3	2.5	i	7	·
C/C(=N\NC(=O)COc1ccc(C#N)cc1)c1ccc(N2CCOCC2)cc1
→ 1	·	2.2	99*	-2.4	-0.5	i	9	·
Nc1nc2sc3c(c2c(=O)s1)CCCC3
→ -23	?	0.8	4	0.1	8.5	i	-18	0.69
C#CC1(O)CC(C)N(C)C(C)C1 (centres undefined)
→ ·	1%	-2.1	·	·	·	·	·	0.68
C(=N\Nc1nc(N2CCOCC2)nc(N2CCOCC2)n1)/c1ccncc1
→ ·	-1%	0.4	-1	·	·	·	·	·
Cc1ccc(S(=O)(=O)N(C)CC(=O)Nc2cccnc2)cc1
→ 3	·	1.3	-2	1.6	1.2	i	11	0.74
CCn1c(=NC(=O)CSC(C)=O)sc2cc(F)ccc21
→ ·	0%	4.1	98*	·	·	·	·	0.77

New compounds follow
Order of values – Ecoli rRNA inh	Vif TR-FRET	HNF4A DNA FP	ALR H2O2 inh	Ecoli rRNA inh RFP	MLL AF4-AF9 inh	FGF22 binding	Ecoli rRNA inh OD600	Ecoli growth
S=c1[nH]nc(CCSCc2ccccc2)n1-c1ccccc1
→ -15	21%	0.1	28	-11	-11	i	-13	0.68
O=C(Cc1ccccc1)N[C@@H](Cc1ccccc1)C(=O)O
→ 7	-5%	1.5	·	5.0	-7.8	i	7	·
COc1ccc(-n2c(C)c(C(C)=O)c(C(C)=O)c2C)cc1
→ 7	-3%	1.7	-4	-0.8	9.5	i	4	0.68
COc1ccc(NC(=O)c2cccc(S(=O)(=O)N3CCN(c4ccccc4)CC3)c2)c(OC)c1
→ 2	·	5.7	·	3.9	2.6	i	11	0.7
COc1cc(/C=C(\C#N)c2ccccn2)ccc1OCc1ccccc1
→ -16	20%	-2.6	54	-1.8	19	i	-12	0.69
COc1ccc(S(=O)(=O)N2CCOCC2)cc1NC(=O)CSc1nnc(C2CC2)n1C1CC1
→ 1	·	0.4	-25	0.2	0.9	i	8	0.72
C[C@@H]1CN([C@H](C)CO)C(=O)c2cc(-c3ccccc3)cnc2O[C@@H]1CN(C)C(=O)c1cccnc1
→ 2	·	·	·	-1.9	-3.3	i	0	·
c1ccc2c(c1)Sc1ccccc1-n1cnnc1-2
→ ·	-5%	1.5	-8	·	·	·	·	0.67
O=Cc1cn(CC(=O)Nc2ccc(F)cc2)c2ccccc12
→ -2	·	5.1	·	-0.5	-5.7	i	0	0.68
COc1ccccc1CNC(=O)Cc1ccc(C)cc1
→ -1	-2%	-0.6	-3	5.7	-2.5	·	3	0.64

Additional results.
Order of values – Ecoli rRNA inh	Vif TR-FRET	HNF4A DNA FP	ALR H2O2 inh	Ecoli rRNA inh RFP	MLL AF4-AF9 inh	FGF22 binding	Ecoli rRNA inh OD600	Ecoli growth
CC1(C(=O)NCCC(F)(F)F)Cc2c(-c3cccc(C(N)=O)c3)ccnc2O1 (centres undefined)
→ -16	·	-0.7	·	-9.8	-2.6	i	-32	·
Clc1ccc(OCCCCCN2CCCC2)c(Br)c1
→ -3	20%	4.9	-18	-0.9	0.1	i	-9	0.69
Cn1c(N)c(C(=O)COC(=O)CCc2nc3ccccc3s2)c(=O)n(C)c1=O
→ -10	1%	-1.9	35	4.7	-0.3	·	-10	0.67
CCOC(=O)c1cnc(SCc2nc(N)nc(Nc3ccccc3OC)n2)nc1N
→ ·	1%	·	-17	·	·	·	·	0.68
O=C(C[C@H]1C[C@H]2c3cc(NC(=O)NC4CCCCC4)ccc3O[C@H]2[C@H](CO)O1)NCC(F)(F)F
→ 3	·	·	·	-1.3	-0.3	i	13	·
CO[C@H]1CN(C)C(=O)c2ccc(NS(C)(=O)=O)cc2OC[C@@H](C)N(C(=O)C2CC2)C[C@@H]1C
→ 2	·	·	·	-0.7	-1.1	i	1	·
Cc1ccc(S(=O)(=O)Nc2ccc3c(c2)C(=O)N([C@@H](C)CO)C[C@@H](C)[C@H](CN(C)C(=O)Nc2ccccc2)O3)cc1
→ -1	·	·	·	1.9	-1.2	i	2	·
Cc1ccc(CNC(=O)CN2CCN(Cc3ccc(C)cc3)C2=O)cc1
→ ·	0%	-0.6	1	·	·	·	·	0.74
COc1ccc(/C=C/C(=O)Nc2sc3c(c2C(=O)NCc2cccnc2)CCCC3)cc1
→ 6	-1%	-5.9	5	-2.0	·	·	15	0.74
CO[C@@H]1CN(C)C(=O)c2cc(NS(=O)(=O)c3ccc(Cl)cc3)ccc2OC[C@H](C)NC[C@H]1C
→ -1	·	·	·	-0.3	-2.5	i	-5	·

Screening data as filed in PubChem.
